TRPML1 blocker: inhibitors of human TRPML1 channel; TRPML1-inducible cells, Ca2+ dye fluorescence, FDSS; hits give low values; inhibition of EC80 agonist-evoked calcium signal; Q9GZU1; hit rate 0.02% among 390,000; activity change, negative = inhibition, % (concentration not given with the values); in the data active means activity change below about -50%; inconclusive means about -30% to -50%; inactive means above about -30%;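 note: stimulus is agonist 54-4 at its EC80 concentration; % is set by controls: 0 for no effect and ±100 for the full control effect; compound concentration not given in the record; the text of the record puts the active cut at -80%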
Target sequence (Q9GZU1 whole entry, looked up): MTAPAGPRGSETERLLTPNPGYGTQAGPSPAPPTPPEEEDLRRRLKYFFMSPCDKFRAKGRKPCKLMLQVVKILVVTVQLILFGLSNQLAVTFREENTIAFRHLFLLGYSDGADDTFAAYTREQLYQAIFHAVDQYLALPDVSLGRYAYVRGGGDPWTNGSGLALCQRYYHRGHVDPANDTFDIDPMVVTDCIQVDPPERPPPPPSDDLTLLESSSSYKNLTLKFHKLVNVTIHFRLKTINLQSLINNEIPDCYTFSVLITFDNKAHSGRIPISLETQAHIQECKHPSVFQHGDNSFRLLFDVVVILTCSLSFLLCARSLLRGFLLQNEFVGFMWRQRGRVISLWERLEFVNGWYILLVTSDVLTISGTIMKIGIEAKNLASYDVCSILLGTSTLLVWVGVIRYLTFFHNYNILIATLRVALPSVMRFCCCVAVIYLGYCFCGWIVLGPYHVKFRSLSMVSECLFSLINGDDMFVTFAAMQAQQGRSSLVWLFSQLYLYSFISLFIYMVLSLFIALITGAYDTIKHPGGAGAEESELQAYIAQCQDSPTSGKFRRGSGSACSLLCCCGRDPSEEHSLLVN
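TRPML1-DL cells, Tet-induced overnight (~16 h, 37 °C) at 1,500 cells/well, were loaded with Ca8 no-wash dye plus quencher for 45-90 min at room temperature. Compounds were pinned during FDSS kinetic reading; agonist 54-4 at EC80 (4 uM final) then added.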
CtBP-E1A inh: CtBP/E1A binding inhibition | AlphaScreen GST-E1A/His-CtBP binding, 1536-well; hits give low values; control for the full effect not named in the record | activity change, % (no concentration beside the values) | hit rate 0.49% among 340,000; in the data active means activity change below about -65%; inconclusive means about -30% to -65%; inactive means above about -30%; note: % is set by controls: 0 for no effect and ±100 for the full control effect; compound concentration not given in the record
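Homogeneous bead-based format: GST-tagged E1A captured on glutathione donor beads, His-tagged CtBP on nickel acceptor beads; compounds precede bead addition by 2 h at 37 °C.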
TRPML1 ag: agonists of human TRPML1 channel. Q9GZU1. TRPML1-expressing cells, Ca2+ dye fluorescence, FDSS; host cell line not named in the record; reference of the full effect not given here. activation, % (no concentration beside the values). hit rate 0.12% among 410,000; in the data active = activation above about 50%; inconclusive = about 30% to 50%; inactive = below about 30%; note: 0% is about no effect; the text of the record puts the active cut at 80%
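TRPML1-DL cells, Tet-induced overnight (~16 h, 37 degrees C), loaded 45-90 min at room temperature with Ca8 no-wash calcium dye plus quencher. FDSS fluorescence: 10 s baseline, compound pin-transfer, 110 s agonist read, then EC80 54-4 (4uM final) and 110 s antagonist read.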
Six1-Eya2 blk: inhibitors of human Six1/Eya2 interaction; AlphaScreen GST-Six1/His-Eya2 binding, biochemical; hits give low values; control for the full effect not named in the record; activity change, % (no concentration beside the values); AID 651725; Q15475+O00167; hit rate 0.56% among 360,000; in the data active = activity change below about -65%; inconclusive = about -30% to -65%; inactive = above about -30%; note: % is set by controls: 0 for no effect and ±100 for the full control effect; compound concentration not given in the record
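GST-Six1 + His-Eya2 (5X stock: 250/500 nM); Tris pH 8.0, 300 mM NaCl, 0.05% BSA, 0.02% Tween 20; GSH donor/Ni acceptor beads; 1 h 37 °C dark; AlphaScreen readout.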
D2 potentiator: potentiates the human D2 dopamine receptor allosterically. hit rate 0.23% among 360,000. DiscoveRx D2 beta-arrestin cells, luminescence, 90 min; 100% = 57 uM dopamine signal. P14416. AID 624464. potentiation, % (test concentration not listed); active = potentiation of 50% or more; inconclusive = 30% to 50%; inactive = 30% or less;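 note: compound concentration not given in the record; tested on top of an EC20 dose of dopamine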
Target sequence (P14416 whole entry, looked up): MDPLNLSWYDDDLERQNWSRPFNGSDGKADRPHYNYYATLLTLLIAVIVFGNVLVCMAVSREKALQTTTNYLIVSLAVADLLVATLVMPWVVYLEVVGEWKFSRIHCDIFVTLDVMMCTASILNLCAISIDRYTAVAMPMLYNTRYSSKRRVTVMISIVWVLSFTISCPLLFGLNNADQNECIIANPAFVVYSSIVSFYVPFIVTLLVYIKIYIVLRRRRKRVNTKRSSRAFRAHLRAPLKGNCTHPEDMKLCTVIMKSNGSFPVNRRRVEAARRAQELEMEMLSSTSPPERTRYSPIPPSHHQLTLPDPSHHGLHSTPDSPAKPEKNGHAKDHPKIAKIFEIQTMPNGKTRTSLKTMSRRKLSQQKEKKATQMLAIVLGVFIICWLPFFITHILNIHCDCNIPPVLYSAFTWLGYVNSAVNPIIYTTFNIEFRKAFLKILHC
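PathHunter beta-arrestin assay in DiscoveRx D2 cells. Compounds were added with an EC20 of dopamine (50 nM final) for 90 min at 37 deg C. Luminescence was read 1 h after detection reagent, with 57 uM dopamine as the EC100 control.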
TRPV1 PAM: enhances activation of the human vanilloid receptor TRPV1; TRPV1-expressing cells, Fluo-8 calcium influx, capsaicin EC20 potentiation; host cell line not named in the record; control for the full effect not named in the record; potentiation, % at 8.33 µM; hit rate 0.02% among 320,000; active means potentiation above 80%; inconclusive means 30% to 80%; inactive means below 30%; note: 0% is about no effect
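Fluo-8 calcium influx in TRPV1-expressing cells, kinetic read (ex 480/em 520 nm). Compound added and read 3 min for agonist activity, followed by capsaicin at EC20 final and 2 min further read for enhancement.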
* marks the source's active call; other numbers are inactive results; ? = inconclusive; · = no result given; & = joins results of further samples.

SMILES	TRPML1 blocker	CtBP-E1A inh	TRPML1 ag	Six1-Eya2 blk	D2 potentiator	TRPV1 PAM
S=c1[nH]c2ccccc2o1	-25	·	0.1	20	-10	11
CCc1cc(-c2n[nH]c(=S)n2C(C)c2ccccc2)cs1 (configuration not stated)	19	7	3.2	-4	1	15
O=C(COc1ccc(Cl)cc1)N1CCCCC1	7	6	0.1	8	-12	-27
CC1CN(C(=O)COC(=O)c2ccc(O)cc2)CC(C)O1 (configuration not stated)	-10	-1	1.5	1	3	-1
Cc1ccc2[nH]c(=O)c(C(c3nnnn3CCc3ccccc3)N3CCOCC3)cc2c1 (configuration not stated)	-2	-2	-0.3	2	-28	-10
CCNC(=O)COc1ccc(OCc2ccccc2)cc1	-8	-15	0.5	-7	3	-19
CC(C)/C=C/C(=O)N1CCCC(N2CCN(c3ccccc3F)CC2)C1 (configuration not stated)	4	1	0.5	-2	-2	-10
O=C(Oc1coc(CSc2ncccn2)cc1=O)c1cccs1	-12	4	-0.6	1	-6	4
Cc1cccc(-n2c(-c3ccncc3)n[nH]c2=S)c1C	-20	10	0.8	13	-7	-11
Cc1cccc(OC(C)C(=O)N2CCc3ccccc3C2)c1 (configuration not stated)	-13	·	1.6	17	-28	-12
CCn1cc(C(=O)NCC2CCCO2)c(=O)c2cc(F)c(N3CCN(C)CC3)cc21 (configuration not stated)	36	3	-0.2	2	-19	·
O=C(Nc1cccc(F)c1)c1cc(S(=O)(=O)N2CCOCC2)cs1	12	5	1.0	-2	-11	-24
O=C(C[n+]1ccccc1)N/N=C/c1c(F)cccc1Cl	-12	·	0.3	1	-8	1
O=[N+]([O-])c1cccc(C=Nc2cccc3ccccc23)c1O	14	-22	-0.8	-6	-5	2
COc1ccc(Nc2nc3ccccc3n3cnnc23)cc1	-12	-3	0.8	-6	-2	28
CC(C)c1c(C(=O)N/N=C/c2ccco2)nnn1-c1nonc1N	55	·	4.7	1	-5	-51
COc1cccc(C(=O)O[C@H]2[C@H](C)NS(=O)(=O)[C@H]3C[C@@H]4C=C[C@]23O4)c1	-5	-9	-0.3&0.1	-1	-3	0
Fc1ccccc1Cc1noc(CN2CCCC(CN3CCOCC3)C2)n1 (configuration not stated)	-9	6	-0.1	3	-5	0
CN(Cc1ccc(Cl)cc1)C(=O)c1ccc(S(=O)(=O)NCc2ccco2)cc1	-10	0	1.5	-2	-1	3
CC(=O)c1cccc(N(CC(=O)NC2CCCCC2)C(=O)c2csnn2)c1	-13	8	-0.5	10	-8	5
COC(=O)c1ccc(NC(=O)COC(=O)c2nc3nccc(C)n3n2)cc1	28	1	-0.4	5	-10	-20
CCC(=O)N1CCc2cc(Br)cc(S(=O)(=O)NCCN3CCCC3)c21	8	-4	-0.4	-5	-3	4
Cc1ccc(C(=O)NNC2=NC(C)(C)Cc3ccccc32)cc1	17	-13	1.5	5	-17	7
COc1ccc(F)cc1C(=O)C1CCCN(Cc2cnc(N3CCCC3)s2)C1 (configuration not stated)	-19	-1	-0.4	4	-7	-9
N#C/C(=C/c1ccc(N2CCOCC2)o1)c1ccc(Br)cc1	31	-2	11	-2	-10	12
Cc1ccc(NC(=O)N2CCCC2C(=O)Nc2ccc(-n3cnnn3)c(C)c2)cc1 (configuration not stated)	2	3	1.2	17	-28	4
O=C(Nc1nc2ccsc2c(=O)s1)c1ccco1	6	-5	0.1	-12	-11	5
COc1ccc([C@H]2CC(=O)C=C(c3cccc(NC(C)=O)c3)C2)cc1	-8	-23	1.4	-11	-14	1
Cc1oc(-c2cccs2)nc1CNC[C@H]1O[C@@H](n2cnc(C(N)=O)n2)[C@H](O)[C@@H]1O	11	-19	0.2	4	·	·
COC(=O)C1=CN(C2CC2)C=C(C(=O)OC)C1c1ccccc1OC	-5	7	-1.2	8	15	-6
COc1ccc([C@H]2C(C(=O)O)=C[C@@H](C(C)(C)C)N2S(=O)(=O)c2ccccc2)cc1	10	5	1.3	0	-6	·
CN1CCN(c2ccc([N+](=O)[O-])cc2C(=O)N2CCOCC2)CC1	3	5	0.0	6	-21	3
CCOC(=O)C1CCN(CC(O)COc2ccc(C(C)(C)CC)cc2)CC1 (configuration not stated)	47	16	-0.6	-6	-6	-13
O=C(NCCc1ccc(Cl)cc1)c1ccc2c(c1)OCO2	-15	-3	2.6	-3	-22	1
CC(=O)Nc1ccc(NC(=O)CSc2ccc3nnc(CCNC(=O)c4ccccc4)n3n2)cc1	-2	2	0.0	-4	-6	-10
COc1ccccc1N1C(=O)S/C(=C\c2cccs2)C1=O	-3	3	1.1	0	0	-17

Part of the list above in order of molar mass, largest number first:
SMILES	TRPML1 blocker	CtBP-E1A inh	TRPML1 ag	Six1-Eya2 blk	D2 potentiator	TRPV1 PAM
N#C/C(=C/c1ccc(N2CCOCC2)o1)c1ccc(Br)cc1	31	-2	11	-2	-10	12
CN1CCN(c2ccc([N+](=O)[O-])cc2C(=O)N2CCOCC2)CC1	3	5	0.0	6	-21	3
COc1ccccc1N1C(=O)S/C(=C\c2cccs2)C1=O	-3	3	1.1	0	0	-17
O=C(NCCc1ccc(Cl)cc1)c1ccc2c(c1)OCO2	-15	-3	2.6	-3	-22	1

The list goes on:
SMILES	TRPML1 blocker	CtBP-E1A inh	TRPML1 ag	Six1-Eya2 blk	D2 potentiator	TRPV1 PAM
CC(=O)Oc1ccc(C(=O)O)cc1OC(C)=O	0	0	0.6	17	3	-12
Cc1ccc(S(=O)(=O)N2[C@@H](c3ccccc3)C(C(=O)O)=CC[C@H]2c2cccs2)cc1	-1	·	-0.1	3	-10	-27
CCn1c(CCNC(=O)c2ccco2)nc2ccccc21	-2	-5	0.2	6	-5	9
C=CCN=C1NN=C(c2cc(C)n(CCOC)c2C)CS1	18	1	-0.2	-2	-21	-10
Cc1ccnn1CCSCC(=O)O	-20	6	-0.2	3	-10	1
COc1cc2c(cc1OC)CN(C(=S)Nc1ccccc1)CC2	-3	3	-0.7	-4	-11	-11
COc1ccc(C)cc1S(=O)(=O)Nc1cccnc1	6	1	-0.3	6	-4	4
CCN(CC(=O)Nc1ccccc1C(F)(F)F)C(=O)c1cccc(N2C(=O)CCC2=O)c1	-1	11	0.1	3	3	4
Cc1ccc(-n2nc(C)c3c(C)cc(=O)[nH]c32)cc1	3	8	3.5	-1	-5	3
O=C(/C=C/c1ccc(Cl)cc1Cl)N(Cc1ccccc1)C1CCS(=O)(=O)C1 (configuration not stated)	-10	3	1.5	7	-15	-5
COc1cc(C(=O)NCC(c2ccco2)N2CCCC2)ccc1OCc1ccccc1 (configuration not stated)	-21	-7	0.5	-8	-3	5
CCC1CCCCN1C(=S)NC(=O)c1ccc(F)c(S(=O)(=O)N2CCOCC2)c1 (configuration not stated)	-5	·	1.5	1	-4	0
CC(=O)Nc1cc(-c2ccc(C(=O)N3CCOCC3)cc2)cn2c(-c3cccc(C(F)(F)F)c3)cnc12	·	-19	-0.2	-2	-6	·
CCN1CCN(Cc2ccc(NC(=O)Nc3ccc(OC)cc3)cc2)CC1	15	0	0.2	1	-31	?
COc1ccc(C(=O)NCCc2nnc3ccc(SCC(=O)N4CCOCC4)nn23)cc1	2	4	0.8	5	-2	1
Cc1ccc(CNC(=O)C(Cc2ccccc2)NS(=O)(=O)c2cccs2)cc1 (configuration not stated)	18	4	0.2	-1	-8	1
O=C(Nc1cccc(C(F)(F)F)c1)C1Cc2c(-c3ccccc3Oc3ccccc3)ccnc2O1 (configuration not stated)	·	-8	0.2	-9	0	·
COc1ccc(N=Cc2nc(-c3ccco3)oc2O)cc1	27	-7	0.3	-13	-6	-8
Cc1ccccc1/C=C/C(=O)NCC(=O)N1CCC(N(C)C2CCCCC2C)CC1 (configuration not stated)	10	·	0.1	-4	-5	17
Cn1nc(C(=O)NC2CCCCC2)c2c1-c1ccccc1S(=O)(=O)C2	1	1	0.3	6	-13	10
CC(C)[C@H](NS(=O)(=O)c1ccccc1)C(=O)OCC(=O)NC(=O)c1cccn1C	-16	1	1.5	-4	6	25
CCOC(=O)N1CCN(S(=O)(=O)c2cccc3nsnc23)CC1	42	-1	1.6	-10	-23	-1
O=C(Nc1cc(=O)[nH]c(=O)[nH]1)c1cc(Cl)ccc1Cl	14	8	0.2	-3	-4	4
CC(C)(C)c1nc2c(s1)CCc1onc(-c3ccc(Br)cc3)c1-2	27	9	0.4	6	0	·

An excerpt from above in order of the Six1-Eya2 blk value, descending.
Compound,Six1-Eya2 blk
Cc1cccc(OC(C)C(=O)N2CCc3ccccc3C2)c1 (configuration not stated),17
CC(=O)c1cccc(N(CC(=O)NC2CCCCC2)C(=O)c2csnn2)c1,10
N#C/C(=C/c1ccc(N2CCOCC2)o1)c1ccc(Br)cc1,-2

Record cards, as listed above.
Results for Cn1nc(C(=O)NC2CCCCC2)c2c1-c1ccccc1S(=O)(=O)C2 : TRPML1 blocker = 1; CtBP-E1A inh = 1; TRPML1 ag = 0.3; Six1-Eya2 blk = 6; D2 potentiator = -13; TRPV1 PAM = 10
Results for Cc1ccccc1/C=C/C(=O)NCC(=O)N1CCC(N(C)C2CCCCC2C)CC1 (configuration not stated) : TRPML1 blocker = 10; CtBP-E1A inh = ·; TRPML1 ag = 0.1; Six1-Eya2 blk = -4; D2 potentiator = -5; TRPV1 PAM = 17

Additional results follow:
SMILES	TRPML1 blocker	CtBP-E1A inh	TRPML1 ag	Six1-Eya2 blk	D2 potentiator	TRPV1 PAM
Cc1ccc([C@H]2C[C@@H](n3cc(C4CC4)nn3)[C@H](O)CN2Cc2cccs2)cc1	-19	7	-0.2	2	-7	·
CCCCNC(=O)N1CCCN(c2ccc(C#N)cn2)CC1	-10	15	1.2	6	1	-20
CCCCn1c(O)c2n(c1=O)Cc1ccccc1N=C2c1ccc(C)cc1	·	21	-0.5	26	0	·
S=C(NCCN1CCOCC1)Nc1ccc(-c2nc3ccccc3[nH]2)cc1	39	-1	-0.2	-12	-2	8
CN(C)CC1CCC/C(=C\c2ccc(OC(=O)c3ccc(Cl)cc3)cc2)C1=O (configuration not stated)	4	30	0.0	?	-9	·
CC(C)(C)c1ccccc1NC(=S)NCc1ccccc1	-11	2	1.1	-5	-31	-11
Cc1cc(Br)c2nc3c(c(C(=O)O)c2c1)CCCCC3	-9	0	-0.5	3	-1	-4

Source: PubChem BioAssay (National Center for Advancing Translational Sciences (NCATS))
